HNF4A DNA FP = change in binding of human HNF4 alpha to DNA | HNF4a-FITC DNA binding, fluorescence polarization, 1 h | P41235 | hit rate 0.3% among 360,000 | activity change, % at 10 µM; in the data active = activity change above about 30%, passing the limit was not always enough;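 note: controls were the assay level and a saturating level of protein; the project sought stronger binding though the title names inhibitors; some compounds called inactive have numbers as strong as hits; positive values seem to mean higher polarization but the record does not say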
Target sequence (P41235 whole entry, looked up): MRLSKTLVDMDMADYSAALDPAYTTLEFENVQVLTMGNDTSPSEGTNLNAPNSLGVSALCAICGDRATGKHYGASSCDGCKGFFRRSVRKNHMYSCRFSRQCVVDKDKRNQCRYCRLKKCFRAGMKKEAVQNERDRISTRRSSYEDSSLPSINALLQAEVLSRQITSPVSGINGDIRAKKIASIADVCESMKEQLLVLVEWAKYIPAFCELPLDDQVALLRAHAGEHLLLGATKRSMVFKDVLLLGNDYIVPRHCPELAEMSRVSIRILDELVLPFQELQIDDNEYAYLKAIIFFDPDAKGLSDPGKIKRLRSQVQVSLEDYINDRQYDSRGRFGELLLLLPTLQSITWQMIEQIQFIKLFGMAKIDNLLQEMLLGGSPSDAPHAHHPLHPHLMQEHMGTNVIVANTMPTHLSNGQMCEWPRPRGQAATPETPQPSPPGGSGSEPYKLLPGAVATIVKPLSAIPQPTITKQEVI
FGF22 binding = FGF22 (human) thermal shift binding; Q9HCT0; recombinant FGF22 thermal shift, SYPRO orange fluorescence; percent of sucrose octasulfate shift, DMSO zero; calls only at 9.99 µM; hit rate 1.5% among 340,000;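 active = melting point raised past a set limit in the mean and every replicate; inconclusive = no clear call; three in four hits are not shown here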
Target sequence (Q9HCT0 whole entry, looked up): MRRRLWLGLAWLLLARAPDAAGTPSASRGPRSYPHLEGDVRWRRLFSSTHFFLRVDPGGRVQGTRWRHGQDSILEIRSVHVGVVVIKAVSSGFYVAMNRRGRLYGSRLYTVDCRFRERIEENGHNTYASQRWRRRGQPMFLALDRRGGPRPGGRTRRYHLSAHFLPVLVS
Ecoli growth = E. coli growth inhibition; Escherichia coli growth, OD600, 23 h; active compounds read low; OD600 absorbance (test concentration not listed); hit rate 0.21% among 330,000; AID 1053175;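 active = OD600 absorbance below the run mean of sample wells minus 3.6 SD, in any replicate, cut at about 0.56 in these data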;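 note: stock transfer was 300 nL into about 60 µL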
AF4-AF9 inh = inhibitors of human MLL-AF4/AF9 interaction; P42568; AID 651704; AlphaScreen, biotin-AF4 peptide binding to FLAG-AF9; inhibition, % at 10 µM; hit rate 0.47% among 350,000;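 active = every replicate reaching a set inhibition limit, whatever the replicate mean, cut at about 25% in these data; inconclusive = mean inhibition reaches that limit but some replicates miss it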;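 note: 0% = plate neutral control median and 100% = total signal loss; the record names both 10 and 1 µM as test concentration; the first replicate is given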
Vif TR-FRET = HIV-1 Vif–A3G interaction blockers – biochemical, TR-FRET, GST-Vif 1-94, biotin-A3G peptide, dose response retest, primary screen (AID 1117319) | inhibition, %, or IC50 in µM where a hit was titrated | TR-FRET GST-Vif / biotin-A3G peptide binding; higher % means a stronger effect; test concentration not given here; strong numbers were not always called active | hit rate 0.57% among 260,000;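 active = above the screen mean plus three standard deviations and confirmed in dose response; inconclusive = results disagree or hit not tested in dose response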;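 note: Vif residues 1-94 fused to GST binding biotinylated APOBEC3G peptide 110-148; 0% = full assay without inhibitor and 100% = GST in place of GST-Vif; retest series ran down from 100 µM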
rRNA inh HTS = selective bacterial rRNA inhibition in E. coli | E. coli WT GFP vs humanized-ribosome RFP mutants, fluorescence, 24 h; active compounds read low; DMSO median 0, no signal -100 | GFP signal change (wild-type ribosome), % (concentration not given with the values) | hit rate 1.6% among 350,000;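 active = significant combined selectivity score with lowered wild-type GFP, culture density cut under 30%, mutant RFP and density less affected; inactive = any of these conditions unmet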; note: one replicate is shown; some compounds called inactive have numbers as strong as hits
ALR inh = inhibitors of human sulfhydryl oxidase ALR; purified ALR, DTT oxidation, H2O2 HRP-luminol luminescence; inhibition, % (concentration not given with the values); hit rate 3.8% among 290,000;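 active = mean and each replicate at 75% or more; inconclusive = only one of the two met; inactive = neither met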;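 note: stock transfer was 7.5 nL into about 7.5 µL; 0% = neutral wells and 100% = wells with inactivated enzyme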
Target sequence (P55789 whole entry, looked up): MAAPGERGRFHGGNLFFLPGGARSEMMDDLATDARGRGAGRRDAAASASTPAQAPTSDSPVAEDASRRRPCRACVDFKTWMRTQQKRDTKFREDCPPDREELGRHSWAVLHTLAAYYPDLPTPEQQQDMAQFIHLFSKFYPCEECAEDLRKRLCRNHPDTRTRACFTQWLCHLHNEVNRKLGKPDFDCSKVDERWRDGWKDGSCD
rRNA inh HTS OD600 = also measured in rRNA inh HTS; calls as there; OD600 change, %; measured here: OD600 growth;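 optical density of the mix in the first replicate; 0 = DMSO median and -100 = no signal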
rRNA inh HTS RFP = recorded beside rRNA inh HTS, whose call it bears; RFP signal change, %; measured here: RFP humanized mutant strains;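 first replicate; 0 = DMSO median and -100 = no signal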
Starred values were filed as active, the others as inactive; i = inactive; ? = inconclusive; / = not tested or not shown. This is a subset; count on the stated rates, not on these rows.

SMILES	HNF4A DNA FP	FGF22 binding	Ecoli growth	AF4-AF9 inh	Vif TR-FRET	rRNA inh HTS	rRNA inh HTS OD600	rRNA inh HTS RFP	ALR inh
CCCCn1c(SCC(=O)O)nc2ccccc21	-2.9	/	0.657	/	2.5%	/	/	/	-7.2
COc1ccc(CNC(=O)C[C@H]2C[C@H](C(=O)N3CCOCC3)[C@@]3(CCC4CCCC4)c4[nH]c5ccc(Cl)cc5c4CCN3C2=O)cc1OC	-2.2	i	0.699	5.6	-5.7%	12.5	15.4	-0.1	/
CC(C)NC(=O)N(C)C[C@H]1Oc2c(NC(=O)c3nc4ccccc4s3)cccc2C(=O)N([C@H](C)CO)C[C@@H]1C	/	i	/	-2.9	/	3.6	5.4	-2.5	/
N#Cc1ccccc1OCCCN1CCC(Cc2ccccc2)CC1	0.0	i	0.627	4.9	/	3.0	-7.7	0.6	-26.6
CC(C)n1c(-c2ccc(N(C)C)cc2)nc2ccccc21	-3.2	/	0.75	/	0.7%	/	/	/	?
C/C(Nc1ccc(Cl)cc1)=C1/CCOC1=O	0.1	i	/	-0.7	-1.2%	-7.0	1.2	1.9	/
CC(NS(=O)(=O)c1ccc(OCC(=O)N2CCOCC2)cc1)c1ccccc1 (centres undefined)	-4.2	/	0.682	/	13.5%	/	/	/	0.2
COc1cccc(CNC(=O)Cn2nc(C)c([N+](=O)[O-])c2C)c1	1.5	i	0.637	-8.1	7.2%	21.6	18.1	1.2	-7.9
Cc1ccccc1-n1cc(CNC(=O)CCc2nnc(CCc3ccccc3)o2)cn1	-1.0	i	0.732	1.1	/	1.8	-3.2	-0.4	/
CCN(CC)CCN1C(=O)c2oc3ccccc3c(=O)c2C1c1ccccc1 (centres undefined)	0.4	/	0.681	/	-6.2%	/	/	/	-1.7
CCN(C(=O)Cn1nc(C)c([N+](=O)[O-])c1C)C1CCS(=O)(=O)C1 (centres undefined)	0.6	i	0.603	0.2	-3.5%	8.0	4.2	-4.0	-1.9
CCCn1nnc(NC(=O)c2cccc(OCC(C)C)c2)n1	-0.3	/	0.665	/	3.8%	/	/	/	5.0
COc1cccc(-c2nnc(SCC(=O)Nc3cc(C)on3)o2)c1	2.8	/	0.7	/	-1.7%	/	/	/	-5.9
CC1=C(C(=O)Nc2ccc(F)cc2)C(c2ccc(C)o2)C2=C(CC(C)(C)CC2=O)N1 (centres undefined)	1.0	/	0.712	/	-1.0%	/	/	/	1.6
Cc1ccc(S(=O)(=O)N2CCCCC2)cc1NC(=O)C1=NN(c2ccccc2)C(=O)CC1	-3.3	i	0.684	-0.2	-7.3%	4.8	5.0	2.8	/
CCCCCn1nc(C)c2c(C)cc(=O)[nH]c21	1.6	/	0.709	/	7.1%	/	/	/	-0.2
Cn1c(=O)c2c(ncn2CCCc2ccccc2)n(C)c1=O	-3.1	/	0.732	/	-1.3%	/	/	/	/
CCOc1ccc(NC(=O)Nc2nnc(CC(=O)NCc3ccccc3)s2)cc1	1.3	i	0.689	-3.9	25.4%	4.3	-0.7	0.7	-3.7
O=C(Cc1ccc(Cl)cc1)NNC(=O)C(=O)NC1CCCCC1	-0.3	i	0.694	-1.5	-7.3%	2.9	9.8	0.4	0.7
CN1C[C@@H]2[C@H](c3ccccc31)[C@H](CO)N2C(=O)C1CCOCC1	/	i	/	-2.4	/	-0.9	-0.1	-1.2	/
CCCc1cc(=O)[nH]c(SCC(=O)Nc2cccc3ccccc23)n1	0.7	i	0.635	0.6	/	-6.5	-0.9	4.3	-6.5
Cc1ccc(NC(=O)NCC2CCN(Cc3cc(C)ccc3Cl)CC2)c(C)c1	-1.0	i	0.7	-22.5	6.4%	3.1	1.5	-1.6	-3.5
CC(=O)Oc1cc(OC(C)=O)c2c(=O)c(-c3ccc4c(c3)OCCCO4)c(C)oc2c1	0.9	i	0.658	-2.2	12.3%	/	/	/	11.2
COc1cc2c(cc1NC(=O)c1ccc3c(c1)OCO3)oc1ccccc12	1.8	i	0.676	5.0	?	11.0	1.3	-3.6	-3.4
CCCNC(=O)Nc1ccc2c(c1)C(=O)N(C)C[C@@H](OC)[C@H](C)CN(C)[C@H](C)CO2	/	i	/	-1.0	/	1.4	-4.4	-2.0	/

Single values from the list:
Result for `Cc1ccc(NC(=O)NCC2CCN(Cc3cc(C)ccc3Cl)CC2)c(C)c1` under Ecoli growth: 0.7
Result for `CCCc1cc(=O)[nH]c(SCC(=O)Nc2cccc3ccccc23)n1` under rRNA inh HTS RFP: 4.3

2 records drawn at random from the list so far:
SMILES	HNF4A DNA FP	FGF22 binding	Ecoli growth	AF4-AF9 inh	Vif TR-FRET	rRNA inh HTS	rRNA inh HTS OD600	rRNA inh HTS RFP	ALR inh
CN1C[C@@H]2[C@H](c3ccccc31)[C@H](CO)N2C(=O)C1CCOCC1	/	i	/	-2.4	/	-0.9	-0.1	-1.2	/
CCCn1nnc(NC(=O)c2cccc(OCC(C)C)c2)n1	-0.3	/	0.665	/	3.8%	/	/	/	5.0

Remaining list, next part
SMILES	HNF4A DNA FP	FGF22 binding	Ecoli growth	AF4-AF9 inh	Vif TR-FRET	rRNA inh HTS	rRNA inh HTS OD600	rRNA inh HTS RFP	ALR inh
CC(=O)c1ccc(S(=O)(=O)NCCC(=O)N2CCN(c3ccccn3)CC2)cc1	-3.1	i	0.695	-3.5	2.1%	-6.0	-6.4	-1.3	0.5
COC(=O)Cc1cc(=O)[nH]c(/N=C(\N)Nc2ccc(C(C)C)cc2)n1	-1.2	i	/	-1.1	30.8%	0.4	6.9	-7.5	/
COc1ccc(Cl)cc1NC(=S)N1CCN(c2ncccn2)CC1	2.3	i	0.681	-0.5	3.1%	-13.1	-11.0	-3.8	8.5
O=C(COC(=O)c1ccc(CNS(=O)(=O)c2ccc(F)c(Cl)c2)cc1)NCC1CCCCC1	-0.4	i	0.734	-11.8	31.1%	1.8	-3.2	-0.7	-7.7
COc1ccc(NC(=O)Nc2ccc(C)cc2Br)c(OC)c1	-1.4	i	0.651	-20.1	-1.2%	11.0	8.9	0.7	0.7
CC(Cc1cccs1)NC(=S)Nc1ccccc1 (centres undefined)	2.7	i	0.696	-0.6	/	7.4	1.4	2.9	4.3
COc1cc(Nc2c3c(nc4ccccc24)CCC3)cc(OC)c1OC	0.3	i	0.658	8.2	-4.1%	-0.3	2.8	1.5	98.8*
C[C@@H]1CN([C@H](C)CO)C(=O)c2cc(NC(=O)NC3CCCCC3)ccc2O[C@@H]1CN(C)Cc1ccc(C(=O)O)cc1	/	i	/	-0.6	/	0.3	-4.2	2.3	/
O=[N+]([O-])c1ccc2nc(Cl)nc(-c3ccccc3)c2c1	-1.3	i	/	-1.0	13.8%	4.4	3.0	-7.7	-19.2
Cc1ccccc1NC(=O)Cc1nc(COC(=O)CCc2ccccc2)cs1	8.6	i	0.636	0.5	-0.3%	6.4	9.2	2.4	-6.0
COc1ccc(-c2cc(C(=O)NC3CCCC3)c3ccccc3n2)cc1	-0.2	i	0.699	-3.9	-15.8%	12.7	5.6	-0.4	-5.8
COc1ccc(NC(=O)N(C)C[C@H]2Oc3ccc(NC(=O)C4CCCCC4)cc3C(=O)N([C@H](C)CO)C[C@H]2C)cc1	/	i	/	-2.5	/	-3.9	-5.8	-1.1	/
C=CCNC(=S)N1CCN(CCN=Cc2c(C)[nH]n(-c3ccc([N+](=O)[O-])cc3)c2=O)CC1	-10.9	i	0.616	-2.2	13.3%	13.5	19.6	3.4	-2.3
O=C(N/N=C/c1cn(-c2ccccc2)nc1-c1cc2ccccc2o1)c1cccnc1	0.0	i	/	-2.2	-3.0%	10.0	13.3	-0.1	-3.5
Cc1ccc(CSCC(=O)Nc2cc(S(=O)(=O)N3CCOCC3)ccc2OCC(F)(F)F)cc1	2.2	i	0.617	-3.4	/	-0.5	-15.8	-3.9	/
C[C@@H]1CN(c2nc3nonc3nc2N2CCSCC2)C[C@H](C)O1	-0.6	i	/	-0.4	/	3.2	-3.4	0.2	/
C[C@@H]1CN([C@H](C)CO)C(=O)c2cc(-c3ccccc3F)cnc2O[C@@H]1CN(C)C(=O)C1CC1	/	i	/	0.0	/	3.0	-10.9	-3.6	/
O=C(NCCC1=CCCCC1)c1cc2ccccc2oc1=O	-6.2	i	0.661	-3.3	2.5%	8.7	4.4	-1.2	-8.3
CCc1ccc2c(c1)C(O)(CC(=O)c1cccs1)C(=O)N2 (centres undefined)	4.9	i	0.712	1.2	-2.8%	12.7	8.3	18.9	/
O=S(=O)(NCc1ccccc1Cl)c1cccs1	2.0	/	0.68	-2.4	6.6%	-4.4	-5.7	3.3	-1.4
CC(C)(C)OC(=O)N1CCCC1C(=O)N1CCc2ccccc21 (centres undefined)	-0.2	/	0.669	/	67.9%	/	/	/	12.4
O=S(=O)(Cc1nc2ccccc2s1)c1ccccc1	3.7	/	0.718	/	-1.6%	/	/	/	/
C[C@H]1CN([C@@H](C)CO)C(=O)c2cc(NS(=O)(=O)c3cn(C)cn3)ccc2O[C@H]1CN(C)Cc1ccc(Cl)c(Cl)c1	/	i	/	-0.5	/	-1.7	-5.5	0.1	/

Entries listed so far containing a Cl atom, in the order listed:
SMILES	HNF4A DNA FP	FGF22 binding	Ecoli growth	AF4-AF9 inh	Vif TR-FRET	rRNA inh HTS	rRNA inh HTS OD600	rRNA inh HTS RFP	ALR inh
COc1ccc(CNC(=O)C[C@H]2C[C@H](C(=O)N3CCOCC3)[C@@]3(CCC4CCCC4)c4[nH]c5ccc(Cl)cc5c4CCN3C2=O)cc1OC	-2.2	i	0.699	5.6	-5.7%	12.5	15.4	-0.1	/
C/C(Nc1ccc(Cl)cc1)=C1/CCOC1=O	0.1	i	/	-0.7	-1.2%	-7.0	1.2	1.9	/
O=C(Cc1ccc(Cl)cc1)NNC(=O)C(=O)NC1CCCCC1	-0.3	i	0.694	-1.5	-7.3%	2.9	9.8	0.4	0.7
Cc1ccc(NC(=O)NCC2CCN(Cc3cc(C)ccc3Cl)CC2)c(C)c1	-1.0	i	0.7	-22.5	6.4%	3.1	1.5	-1.6	-3.5
COc1ccc(Cl)cc1NC(=S)N1CCN(c2ncccn2)CC1	2.3	i	0.681	-0.5	3.1%	-13.1	-11.0	-3.8	8.5
O=C(COC(=O)c1ccc(CNS(=O)(=O)c2ccc(F)c(Cl)c2)cc1)NCC1CCCCC1	-0.4	i	0.734	-11.8	31.1%	1.8	-3.2	-0.7	-7.7
O=[N+]([O-])c1ccc2nc(Cl)nc(-c3ccccc3)c2c1	-1.3	i	/	-1.0	13.8%	4.4	3.0	-7.7	-19.2
O=S(=O)(NCc1ccccc1Cl)c1cccs1	2.0	/	0.68	-2.4	6.6%	-4.4	-5.7	3.3	-1.4
C[C@H]1CN([C@@H](C)CO)C(=O)c2cc(NS(=O)(=O)c3cn(C)cn3)ccc2O[C@H]1CN(C)Cc1ccc(Cl)c(Cl)c1	/	i	/	-0.5	/	-1.7	-5.5	0.1	/

Compound activity from PubChem.
